RanGTP-Impb inh: inhibitors of RanGTP-importin-beta interaction, primary screen, biochemical, FRET, CFP-Ran, YFP-importin-beta, homogeneous; hit rate 1.1% among 300,000; inhibition, % (test concentration not listed); cell-free CFP-Ran/YFP-importin-beta FRET ratio; Ran GTPase (GTP-bound) - importin-beta complex;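 active means most replicates above 15%; inconclusive means exactly half above 15%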;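 further: 0% = DMSO wells and 100% = Ran loaded with GDP instead of GTP; wells of about 40 µL received 100 nL stock; the first replicate is given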
MLL AF4-AF9 inh: inhibitors of AF4 peptide binding to AF9, primary screen, biochemical, AlphaScreen, biotin-AF4 peptide, FLAG-AF9, single point. inhibition, % at 10 µM. hit rate 0.47% among 350,000. AID 651704, 2012;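 active means every replicate reaching a set inhibition limit, whatever the replicate mean, cut at about 25% in these data; inconclusive means mean inhibition reaches that limit but some replicates miss it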;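 further: 0% = plate neutral control median and 100% = total signal loss; the record names both 10 and 1 µM as test concentration; the first replicate is given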
LANA-H2A inh: blockers of LANA interaction with H2A/H2B – biochemical, FP readout, HTS, primary screen | inhibition, % (test concentration not listed) | cell-free LANA-H2A/H2B peptide, fluorescence polarization | Protein LANA1 (Human herpesvirus 8 type P (isolate GK18)), Q9QR71 | AID 2629, 2010 | hit rate 0.6% among 320,000; in the data active means inhibition mostly above about 10%, no sharp cut-off; inactive means mostly below about 6.7%;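 further: stock transfer was 7.5 nL into about 10 µL; 0% = median of vehicle wells and 100% = median of positive control wells; one replicate is shown; the record names a cut of 25% in any replicate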
Target sequence (Q9QR71 whole entry, looked up): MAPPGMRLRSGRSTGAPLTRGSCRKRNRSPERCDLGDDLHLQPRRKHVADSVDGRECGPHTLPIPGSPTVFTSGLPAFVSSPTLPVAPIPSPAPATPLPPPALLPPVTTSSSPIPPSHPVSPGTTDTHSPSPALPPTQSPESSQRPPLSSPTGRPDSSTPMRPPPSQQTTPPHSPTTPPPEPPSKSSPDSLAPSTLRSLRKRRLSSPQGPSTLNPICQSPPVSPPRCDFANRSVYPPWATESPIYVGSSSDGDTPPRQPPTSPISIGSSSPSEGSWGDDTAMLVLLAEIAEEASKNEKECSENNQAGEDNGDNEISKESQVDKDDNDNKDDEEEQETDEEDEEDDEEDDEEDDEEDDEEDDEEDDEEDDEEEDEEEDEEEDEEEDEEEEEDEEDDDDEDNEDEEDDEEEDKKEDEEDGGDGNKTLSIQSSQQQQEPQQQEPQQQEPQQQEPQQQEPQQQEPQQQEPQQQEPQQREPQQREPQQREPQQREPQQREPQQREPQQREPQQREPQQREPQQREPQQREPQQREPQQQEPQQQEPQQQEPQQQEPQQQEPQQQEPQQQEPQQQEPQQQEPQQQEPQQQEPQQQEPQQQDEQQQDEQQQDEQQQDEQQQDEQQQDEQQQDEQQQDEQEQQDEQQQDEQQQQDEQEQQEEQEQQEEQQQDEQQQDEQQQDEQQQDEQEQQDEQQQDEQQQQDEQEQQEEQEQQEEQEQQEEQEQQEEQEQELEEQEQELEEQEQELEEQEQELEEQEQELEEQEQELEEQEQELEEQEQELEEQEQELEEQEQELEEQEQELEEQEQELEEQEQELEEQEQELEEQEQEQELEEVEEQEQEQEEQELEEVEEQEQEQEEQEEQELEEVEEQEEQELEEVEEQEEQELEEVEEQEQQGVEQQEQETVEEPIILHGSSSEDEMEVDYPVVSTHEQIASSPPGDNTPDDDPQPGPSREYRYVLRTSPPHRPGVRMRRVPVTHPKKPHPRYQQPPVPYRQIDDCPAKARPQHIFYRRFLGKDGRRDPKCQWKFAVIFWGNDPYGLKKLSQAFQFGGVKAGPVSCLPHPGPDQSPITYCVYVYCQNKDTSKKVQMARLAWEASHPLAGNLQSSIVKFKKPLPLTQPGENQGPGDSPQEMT
T cruzi repl: inhibitors of intracellular T. cruzi growth, primary screen, luminescence, NIH3T3 host cells | inhibition, % (test concentration not listed) | T. cruzi beta-gal in NIH3T3, 90 h | hit rate 1.4% among 300,000 | AID 1885, 2009;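 active means mean inhibition across valid replicates above about 55%, limit read from the data; inconclusive means mean below that limit but half or more replicates reach it; inactive means mean below it, under half of replicates reach it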;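 further: signal also drops with host cell toxicity which is not excluded here; 0% = plate median of DMSO wells and 100% = zero luminescence signal; higher percent means less beta-gal luminescence so fewer parasites; stock transfer was 50 nL into about 50 µL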
Calb FLC: C. albicans growth inhibition with fluconazole, primary screen, CaCi-2 strain, Alamar Blue fluorescence. growth inhibition, % (test concentration not listed). hit rate 0.57% among 300,000. C. albicans CaCi-2 (fluconazole-resistant clinical isolate) + fluconazole, 48 h;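 active means most replicates above 75%; inconclusive means exactly half above 75%; inactive means most below 75%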;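 further: all wells also contain fluconazole at 8 µg/ml as a sub-toxic cotreatment; 0% = median of DMSO wells and 100% = median of geldanamycin control wells; wells of about 8 µL received 7.5 nL stock; the first replicate is given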
Beta cell apopt: inhibitors of cytokine-induced beta cell apoptosis, primary screen, luminescence; hit rate 0.8% among 300,000; protection from apoptosis, % (no concentration beside the values); AID 435005, 2010; INS-1E cytokine-induced death, ATP luminescence, 48 h; percent of positive-control rescue, neutral wells zero;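 active means all replicates at 75% or more, or half of them and the mean; inconclusive means half reach 75% but not the mean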;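 further: 0% = cytokine-treated negative control wells and 100% = positive control rescue; higher means more ATP so stronger rescue from cytokine killing; wells of about 40 µL received 100 nL stock; the first replicate is given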
Vif TR-FRET: inhibitors of Vif binding to APOBEC3G peptide, primary screen, biochemical, TR-FRET, GST-Vif 1-94, biotin-A3G peptide, dose response retest (AID 1117319) | Virion infectivity factor (Human immunodeficiency virus type 1 group M subtype B (isolate … | TR-FRET GST-Vif / biotin-A3G peptide binding; higher % means a stronger effect; test concentration not given here; strong numbers were not always called active | inhibition, %, or IC50 in µM where a hit was titrated | hit rate 0.57% among 260,000;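 active means above the screen mean plus three standard deviations and confirmed in dose response; inconclusive means results disagree or hit not tested in dose response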;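 further: Vif residues 1-94 fused to GST binding biotinylated APOBEC3G peptide 110-148; 0% = full assay without inhibitor and 100% = GST in place of GST-Vif; retest series ran down from 100 µM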
A1 inh: caspase 3/7 activation in MEF A1-2A-BIM cells, primary screen, A1 inhibitor project, cell-based, luminescence, HTS. Caspase-Glo 3/7 luminescence, 3 h; percent of clofoctol response, vehicle zero. hit rate 0.066% among 330,000. caspase activation, % (concentration not given with the values);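 active means over half of replicate activation scores above 10%, or exactly half above 10 with the replicate mean above 10; inconclusive means replicate mean below 10 yet half the replicates above 10; inactive means over half of replicates below 10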;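 further: wells of about 30 µL received 50 nL stock; many hits fall short of the cut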
An asterisk follows results filed as active; ? = inconclusive; nt = not tested or not shown.

SMILES	RanGTP-Impb inh	MLL AF4-AF9 inh	LANA-H2A inh	T cruzi repl	Calb FLC	Beta cell apopt	Vif TR-FRET	A1 inh
COc1ccc(/C(C)=N/Nc2nc(C)c(C(C)=O)s2)cc1	2.6	7.0	3.8	29	58	nt	nt	0.7
Cc1ccc(SCCC(=O)NCCSCc2ccccc2C)cc1	3.2	nt	1.7	-1	1	-4	7%	-0.2
O=C(C(=O)N1CCc2ccccc2C1)c1cn(CC(=O)N2CCCC2)c2ccccc12	3.1	nt	3.2	-23	-11	-5	nt	-0.8
NC(=S)N/N=C/c1ccccc1OC(=O)c1cc2ccccc2oc1=O	5.6	-2.7	0.0	-20	2	2	nt	0.6
CC1CCN(c2nnc(NC(=O)Cn3c(=O)oc4ccccc43)s2)CC1	-3.1	-6.7	0.4	3	-1	-4	4%	0.2
CCC(C)(C)NC(=O)c1cc(C(=O)OC)cc([N+](=O)[O-])c1	-1.0	nt	-3.5	5	-1	-5	20%	-0.6
COc1ccc(Cl)cc1NC(=O)CSc1cccc[n+]1[O-]	nt	-1.2	-1.6	nt	nt	-1	-4%	0.7
Cc1cc(SCC#N)nc2ccccc12	5.2	-1.5	1.2	2	11	-10	-5%	0.9
COc1ccc(NC(=O)Cn2nc(C(=O)O)c3ccccc3c2=O)cc1S(=O)(=O)N1CCCCC1	nt	-2.9	3.4	nt	nt	-8	-5%	-2.7
CC(C)(C)CC(=O)Nc1ccccc1N1CCN(c2ccccc2)CC1	1.7	6.7	4.2	5	-1	0	13%	-0.2
CCn1c(SCC(=O)NCC2CCCO2)nc2c(c1=O)SCC2 (stereo not drawn)	-0.9	-1.7	-1.5	-2	-4	-8	-3%	-1.6
COc1ccc(CC(=O)N(C)Cc2ccc(C(C)(C)C)cc2)cc1S(=O)(=O)N1CCOCC1	-3.0	-0.7	-1.4	12	-4	-11	nt	-0.5
Nc1c(S(=O)(=O)c2ccccc2)cnc2c(-c3ccc(F)cc3)cnn12	-4.7	nt	1.6	-4	-9	-6	3%	0.2
CCc1cc2c(SCC(=O)c3ccccc3)ncnc2s1	0.2	nt	-0.2	6	-4	2	3%	-1.7
Cc1c(C(=O)NCc2ccccc2)oc2ccc(S(=O)(=O)N3CCCC3)cc12	4.3	?	5.4	18	-9	0	?	-0.3
CC(=O)N1c2ccc(S(=O)(=O)NCc3ccco3)cc2CC1C (stereo not drawn)	?	-1.5	2.2	-1	-17	4	nt	-0.3
COc1cc(C(=O)Nc2ccc3c(c2)Cc2ccccc2-3)cc(OC)c1OC	0.0	-1.1	1.5	-13	3	5	nt	0.6
CC(NC(=O)NC1CCCCC1)C(c1cccs1)N1CCN(C)CC1 (stereo not drawn)	5.4	-10	-2.3	-6	-5	-3	2%	1.2
Cc1ccc(N(C)C(=O)c2ccc3c(Cl)c4c(nc3c2)CCC4)cc1C	-2.2	-1.3	-0.4	41	-5	5	-10%	nt
O=C1c2cccc(Cl)c2C(=O)N1c1ccccn1	?	-1.1	-0.7	-14	6	nt	nt	-0.9
CC(=O)Nc1c(F)cc(Br)cc1F	3.1	3.0	1.6	-6	-2	4	31%	-0.1
CCN(CC)C(=O)CSc1nc2c(sc(=S)n2Cc2ccco2)c(=O)n1-c1ccccc1	3.8	nt	2.4	33	52	-1	19%	-1.1
COC(=O)c1cccc(NC(=S)NCc2ccco2)c1	-0.5	2.5	-0.1	1	1	-4	-7%	-0.2
O=C(NNS(=O)(=O)c1ccccc1)c1cccc(F)c1	-5.1	0.8	-3.9	-16	4	-7	nt	0.5
COCCN(C(=O)CC1CCCC1)c1c(N)n(CC(C)C)c(=O)[nH]c1=O	nt	-2.1	-1.3	nt	nt	-8	-1%	1.0
Later entries
SMILES	RanGTP-Impb inh	MLL AF4-AF9 inh	LANA-H2A inh	T cruzi repl	Calb FLC	Beta cell apopt	Vif TR-FRET	A1 inh
COCCn1c(SCC(=O)N2CCCCC2)nc2c(c1=O)SCC2	6.8	-0.4	-1.3	4	0	-1	nt	0.9
NC(=O)CC(NC(=O)Cc1cccc2ccccc12)c1ccc(NC2CCCCC2)c([N+](=O)[O-])c1 (stereo not drawn)	1.1	5.1	-3.4	-5	4	-3	-7%	-0.1
COc1ccc(S(=O)(=O)N2CCN(C(=O)Nc3ccccc3OC)CC2)cc1	6.6	-0.2	5.1	-5	16	nt	nt	2.5
O=C(NCCCn1ccnc1)C(=O)NCC1OCCN1S(=O)(=O)c1cc(F)ccc1F (stereo not drawn)	3.6	-0.2	-0.7	-7	4	7	3%	-0.5
Cc1ccc(S(=O)(=O)NCCC(=O)N2CCCCCC2)cc1	-2.2	3.6	4.6	-9	8	nt	-7%	0.1
O=C(NCc1cccs1)Nc1ccc(Cl)cc1	1.1	nt	-4.9	-2	-1	1	12%	-0.2
Nn1c(SCC(=O)NC(=O)NCc2ccco2)nnc1-c1ccc(OC(F)F)cc1	-2.7	nt	2.1	nt	-4	2	?	-0.2
N#Cc1nn(-c2ccccc2)nc1N1CCCCC1	5.7	nt	-3.6	21	30	2	-7%	0.3
CCOc1ccc(CCNC(=O)C2CCN(S(=O)(=O)N3CCC(C)CC3)CC2)cc1OCC	3.0	nt	0.2	-6	1	-1	-7%	0.4
O=C(NCCN1CCCCCC1)c1ccc(CS(=O)(=O)c2ccc(Br)cc2)o1	-2.6	nt	-3.3	-10	10	-3	-1%	1.4
COc1cccc(CN2CCC(C(=O)N3CCN(c4ccccc4F)CC3)CC2)c1	0.4	0.9	-1.2	9	18	-16	-5%	2.2
COc1ccccc1OC1OC2COC(c3ccco3)OC2C(O)C1NC(C)=O (stereo not drawn)	0.9	0.9	3.7	-4	16	-5	nt	-0.6
Cc1ccc(S(=O)(=O)N2CCCC(C(=O)NCCCN3CCCCC3C)C2)cc1 (stereo not drawn)	-0.7	nt	7.0	5	6	1	1%	-0.2
CCc1c(C)sc(NC(=O)c2cnn3cccnc23)c1C#N	-0.6	nt	-0.5	-11	?	0	3%	-0.3
CC(C)CNC(=O)c1nc(-c2ccccc2)n(-c2ccccc2)n1	?	nt	0.4	6	4	-6	5%	2.0
CCNC(=O)NC(=O)COC(=O)c1cccc(S(=O)(=O)N2CC3(C)CC2CC(C)(C)C3)c1 (stereo not drawn)	-5.6	0.4	1.4	-17	-1	-1	8%	1.5
Cc1ccc(C(=O)COc2ccc3ccc(=O)oc3c2)cc1	6.2	4.5	-1.5	1	2	-6	3%	-0.4
O=C(COC(=O)/C=C/c1ccc(F)cc1)NCc1ccco1	3.5	1.6	-1.7	-10	-10	-6	12%	1.3
Cn1ccnc1C(=O)c1cccc([N+](=O)[O-])c1	2.2	-3.2	1.3	-59	20	-7	6%	0.6
O=C(c1ccc(F)cc1)N1CCC(C(=O)N2CCN(S(=O)(=O)c3cccc(Cl)c3)CC2)CC1	3.0	-7.8	3.4	32	0	2	3%	-0.6
CC(=O)Nc1ccc(S(=O)(=O)N2CCN(Cc3cccs3)CC2)cc1	3.8	0.4	-3.2	-2	-5	-1	-4%	-0.1
O=C(CCc1nnc(CCCc2ccccc2)o1)NC(C1CC1)C1CC1	-2.4	nt	-1.7	8	-19	-1	0%	-0.8
Cc1ccc(S(=O)(=O)c2nc(S(C)(=O)=O)sc2N2CCN(C)CC2)cc1	4.4	1.0	-1.7	-10	-1	-11	-1%	0.4
O=C(CCl)Nc1c2c(nn1-c1ccccc1)CSC2	0.1	0.1	1.4	-14	0	-8	nt	2.3
CC(C)CCOc1ccccc1C(N)=O	-1.1	-0.1	-1.2	-15	-7	-5	2%	1.0
Next part.
SMILES	RanGTP-Impb inh	MLL AF4-AF9 inh	LANA-H2A inh	T cruzi repl	Calb FLC	Beta cell apopt	Vif TR-FRET	A1 inh
O=C(Cn1nc(-c2ccc(Cl)cc2)c2ccccc2c1=O)NCC1CCCO1 (stereo not drawn)	4.8	nt	0.7	-3	-5	nt	-6%	-0.2
COc1ccc2c(C(=O)CN3CC(C)OC(C)C3)c[nH]c2c1 (stereo not drawn)	2.4	nt	-2.3	-4	2	-12	-2%	-0.2
COCC(=O)N1CCC(Oc2ccc(C(=O)NCc3cc(C)n(C)n3)cc2)CC1	-0.2	-3.0	2.6	-7	11	-6	nt	0.5
CC(C)CNC(=O)/C=C/C=C/CCCC/C=C/c1ccc2c(c1)OCO2	nt	-0.4	-0.7	nt	nt	6	nt	-0.6
CCN(CC)S(=O)(=O)c1ccc2c(c1)NC(=O)C1CCCN21 (stereo not drawn)	0.4	1.6	-2.6	5	6	-3	1%	-0.4
COc1cccc(N2CCN(C(=O)c3ccc4nc(N5CCC(C)CC5)sc4c3)CC2)c1	2.2	8.2	5.0	35	-10	11	-2%	0.2
C=CCNC(=S)Nc1sc2c(c1C(=O)OCC)CC(C)(CC)OC2 (stereo not drawn)	-2.2	-1.9	-2.7	7	98*	7	-14%	0.5
Cc1cc(C)c(NC(=O)Nc2ccccc2C)c(Cl)c1	2.1	9.0	0.3	-17	-5	0	0%	?
O=C(NCC1CCN(Cc2ccc(F)cc2)CC1)C1CCCN(c2ncnc3c2nc2n3CCCCC2)C1 (stereo not drawn)	5.5	4.6	0.6	-4	-5	-6	nt	-1.8
CCC1(C)COC2(OC1)C(=O)Nc1ccccc12 (stereo not drawn)	3.9	nt	-6.1	-2	-6	-5	0%	0.6
O=C(CCCNC(=O)/C(=C\c1ccccc1F)NC(=O)c1ccccc1)OCc1ccccc1	1.6	nt	2.3	-1	-6	1	1%	0.4
COc1ccc(C2c3ccc4ccccc4c3Oc3ncn4nc(Cc5ccccc5)nc4c32)cc1OC (stereo not drawn)	0.8	nt	-0.8	36	6	2	-65%	0.3
O=C(O)C1Nc2ccc(OC(F)(F)F)cc2C2C=CCC12 (stereo not drawn)	1.6	nt	6.7	-11	6	0	nt	-0.1
COc1ccccc1NC(=O)CSc1ccc2nnc(-c3ccc(C)cc3)n2n1	-3.8	8.3	0.4	5	-6	-3	-27%	-0.6
O=C(NC1CCCCCCC1)c1ccc(Br)cc1	1.5	-3.4	5.0	10	-6	nt	nt	-2.8
COc1cccc(NC2=C(Cl)C(=O)OC2OC(=O)c2ccco2)c1 (stereo not drawn)	-2.2	-2.1	3.0	-21	?	nt	-13%	-0.4
CCOc1ccccc1NC(=O)COC(=O)CSc1ccc(Cl)cc1	5.3	-3.1	3.5	-21	39	2	nt	-0.5
NC(=O)CC(NC(=O)c1cccc(Br)c1)c1ccc(N2CCC(N3CCCCC3)CC2)c([N+](=O)[O-])c1 (stereo not drawn)	?	-3.2	-1.5	-1	2	-2	nt	0.8
COc1ccc(-c2[nH]ncc2-c2cnc(C)s2)c(O)c1	2.1	-15	-4.7	4	8	-10	-3%	-0.2
CN(C)CCCn1c(SCC(=O)Nc2nccs2)nnc1-c1ccncc1	4.7	1.5	-1.8	0	-10	-2	9%	0.0
